ALR H2O2 inh: inhibitors of human sulfhydryl oxidase ALR; 290,000 tested, 3.8% active; purified ALR, DTT oxidation, H2O2 HRP-luminol luminescence; AID 485317; inhibition, % (no concentration beside the values); P55789;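 active = mean and each replicate at 75% or more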;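 also: stock transfer was 7.5 nL into about 7.5 µL; 0% = neutral wells and 100% = wells with inactivated enzyme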
Beta2AR agonist: activates human beta-2 adrenergic receptor causing internalization; P07550; Am2.2-beta2AR cells, FAP receptor internalization, flow cytometry; reference of the scale not given here; response, % (test concentration not listed); 340,000 tested, 0.43% active;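 active = response above a set limit, near 3 SD of response in nonfluorescent compounds, cut at about 42% in these data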;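 also: stock transfer was 100 nL into about 11 µL; a reference agonist was the positive control; negative values mostly stem from fluorescent compounds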
Target sequence (P07550 whole entry, looked up): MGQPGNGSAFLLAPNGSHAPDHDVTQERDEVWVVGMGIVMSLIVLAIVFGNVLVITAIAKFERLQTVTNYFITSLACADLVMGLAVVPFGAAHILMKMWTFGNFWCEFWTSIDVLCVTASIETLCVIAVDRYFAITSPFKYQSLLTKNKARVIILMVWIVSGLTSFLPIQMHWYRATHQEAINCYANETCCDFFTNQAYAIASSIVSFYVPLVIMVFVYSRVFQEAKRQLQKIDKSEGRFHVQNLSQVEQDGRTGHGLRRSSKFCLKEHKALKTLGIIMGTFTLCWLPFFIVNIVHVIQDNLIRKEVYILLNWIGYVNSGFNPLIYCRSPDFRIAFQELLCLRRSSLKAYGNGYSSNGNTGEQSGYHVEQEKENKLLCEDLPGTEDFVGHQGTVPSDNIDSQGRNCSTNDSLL
UCH37 inh: human UCH37 deubiquitinating enzyme inhibition. inhibition, % (no concentration beside the values). purified proteasome/UCH37, Ub-AMC cleavage fluorescence. 330,000 tested, 0.33% active. AID 588478;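 active = mean of two replicates above 20%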;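 also: 0% = compound-free wells with enzyme and 100% = wells lacking proteasome; stock transfer was 100 nL into about 20 µL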
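Material: Human UCH37 enzyme supplied as purified proteasome complex | Schedule: 30 min preincubation with enzyme, 25 min cleavage at room temperature | Detection: AMC fluorescence 355/460 nm | Measure: % inhibition of Ub-AMC cleavage fluorescence | Controls: Wells without proteasome as full block, compound-free enzyme plus substrate as uninhibited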
FGF22 binding: shifts melting point of recombinant human FGF22; recombinant FGF22 thermal shift, SYPRO orange fluorescence; percent of sucrose octasulfate shift, DMSO zero; 340,000 tested, 1.5% active; Q9HCT0; calls only at 9.99 µM;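 active = melting point raised past a set limit in the mean and every replicate; three in four hits are not shown here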
Target sequence (Q9HCT0 whole entry, looked up): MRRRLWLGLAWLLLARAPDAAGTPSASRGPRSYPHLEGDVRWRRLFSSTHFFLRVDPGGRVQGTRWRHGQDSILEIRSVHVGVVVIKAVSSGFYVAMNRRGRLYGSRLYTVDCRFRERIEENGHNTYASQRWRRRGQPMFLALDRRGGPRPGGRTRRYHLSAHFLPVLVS
rRNA inh HTS: inhibitors of bacterial rRNA selective over humanized ribosomes; E. coli WT GFP vs humanized-ribosome RFP mutants, fluorescence, 24 h; hits give low values; DMSO median 0, no signal -100; GFP signal change (wild-type ribosome), % (test concentration not listed); 350,000 tested, 1.6% active;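 active = significant combined selectivity score with lowered wild-type GFP, culture density cut under 30%, mutant RFP and density less affected; inactive = any of these conditions unmet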; also: one replicate is shown; some compounds called inactive have numbers as strong as hits
HNF4A DNA FP: change in binding of human HNF4 alpha to DNA. activity change, % at 10 µM. HNF4a-FITC DNA binding, fluorescence polarization, 1 h. P41235. 360,000 tested, 0.3% active. AID 1224865; in the data active = activity change above about 30%, passing the limit was not always enough;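 also: controls were the assay level and a saturating level of protein; the project sought stronger binding though the title names inhibitors; some compounds called inactive have numbers as strong as hits; positive values seem to mean higher polarization but the record does not say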
Target sequence (P41235 whole entry, looked up): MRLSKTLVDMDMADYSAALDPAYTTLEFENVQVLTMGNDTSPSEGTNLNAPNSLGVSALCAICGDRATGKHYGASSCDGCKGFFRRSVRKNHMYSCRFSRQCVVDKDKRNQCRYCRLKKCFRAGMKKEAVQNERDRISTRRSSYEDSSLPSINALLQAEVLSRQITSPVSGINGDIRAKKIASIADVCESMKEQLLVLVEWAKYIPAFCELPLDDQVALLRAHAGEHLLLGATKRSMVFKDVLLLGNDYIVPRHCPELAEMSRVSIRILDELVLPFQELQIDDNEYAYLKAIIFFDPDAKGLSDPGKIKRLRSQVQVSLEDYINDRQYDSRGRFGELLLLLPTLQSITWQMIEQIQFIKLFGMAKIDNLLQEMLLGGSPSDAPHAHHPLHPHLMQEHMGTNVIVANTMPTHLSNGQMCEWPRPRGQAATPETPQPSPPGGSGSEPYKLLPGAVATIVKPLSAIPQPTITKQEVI
Ecoli growth: E. coli growth inhibition; Escherichia coli growth, OD600, 23 h; hits give low values; OD600 absorbance (test concentration not listed); 330,000 tested, 0.21% active;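 active = OD600 absorbance below the run mean of sample wells minus 3.6 SD, in any replicate, cut at about 0.56 in these data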;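 also: stock transfer was 300 nL into about 60 µL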
rRNA inh HTS OD600: further read-out of rRNA inh HTS, marked with its call; OD600 change, %; measured here: OD600 growth;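 optical density of the mix in the first replicate; 0 = DMSO median and -100 = no signal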
rRNA inh HTS RFP: second read-out of rRNA inh HTS, no call of its own (marks repeat the call); RFP signal change, %; measured here: RFP humanized mutant strains;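 first replicate; 0 = DMSO median and -100 = no signal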
* hit, by the source's call; i = inactive; nt = not tested or not shown. These rows are one share of the data; rates above refer to the full screens.

SMILES	ALR H2O2 inh	Beta2AR agonist	UCH37 inh	FGF22 binding	rRNA inh HTS	rRNA inh HTS OD600	rRNA inh HTS RFP	HNF4A DNA FP	Ecoli growth
CN(C)c1[nH]c(=O)c(C#N)c2c1CCN2Cc1ccccc1	-1	6	5.1	nt	nt	nt	nt	1.0	0.68
CCOC(=O)C1=C(c2ccccc2)NC(=O)NC1c1cc(OC)c(OC)cc1OC (stereo unspecified)	-12	-20	1.5	i	23	8	3.1	2.0	0.65
CCCN(CC(=O)Nc1ccccc1C)C(=O)c1ccc(Cl)c(S(=O)(=O)N2CCCC2)c1	5	-5	-0.9	i	2	-5	-0.5	1.4	0.6
Cc1cc(C(=O)CN2C(=O)C(=O)N(C3CCCC3)C2=O)c(C)n1-c1ccc(F)cc1	-3	0	1.6	nt	-6	4	-0.7	2.0	0.74
CCN(CC)C(=O)N1CCC(NC(=O)Cc2ccccc2)CC1	-3	-7	0.2	nt	nt	nt	nt	0.2	0.69
COC(=O)c1ccc2c(c1)S(=O)(=O)NC(=NCCCN1CCOCC1)S2	1	-6	4.2	nt	nt	nt	nt	-0.1	0.68
O=C(COC(=O)c1cc[n+]([O-])cc1)Nc1ccccc1Sc1ccccc1	nt	7	-0.1	i	-4	-8	2.6	0.7	0.68
CCCC1(c2ccccc2)NC(=O)N(CC(=O)Nc2cc(S(=O)(=O)N3CCOCC3)ccc2Cl)C1=O (stereo unspecified)	nt	-2	4.1	i	-1	-4	2.5	-0.9	0.71
COc1cc(/C=N/NC(=O)C(C)Nc2n[nH]c(=O)[nH]c2=O)ccc1O (stereo unspecified)	99*	2	nt	nt	nt	nt	nt	2.1	nt
CC(C)NC(=O)C1(C)CSCC(=O)N1CCCN1CCOCC1 (stereo unspecified)	nt	nt	nt	i	2	5	-0.9	2.4	nt
Cc1ccc(C(=O)N/C(=C/c2cccs2)C(=O)N2CCCCCC2)cc1	nt	-9	1.3	nt	nt	nt	nt	1.5	0.72
NS(=O)(=O)c1ccc(CNC(=S)Nc2cc(S(=O)(=O)N3CCOCC3)ccc2Cl)cc1	nt	11	nt	i	0	-2	-2.6	2.6	nt
CC(C)(C)OC(=O)N1CCN(C(=O)c2[nH]cnc2C(=O)NCC(=O)OCc2ccccc2)CC1	nt	2	1.0	i	0	23	3.9	-2.4	0.7
O=c1c2ccccc2nc(SCc2ccccc2F)n1C1CCCC1	nt	2	2.9	i	0	-4	7.1	1.5	0.73
Cc1ccccc1/C=C\c1nc2ccccc2c(=O)n1Cc1ccccc1	-2	3	1.3	nt	nt	nt	nt	2.0	0.76
Cc1ccc(-c2nc3[nH]c(=O)cc(NC(=O)c4cccs4)n3n2)cc1	5	10	4.9	i	9	5	2.5	10	0.71
COc1ccc(NC(=O)CC2C(=O)N(c3ccc(Cl)cc3)C(=S)N2CCc2ccncc2)cc1 (stereo unspecified)	-6	6	4.9	i	nt	nt	nt	0.2	0.75
CC1CCCCC1NC(=O)CC1Oc2ccccc2NC1=O (stereo unspecified)	15	-2	4.2	i	2	3	-2.4	2.5	0.74
Cc1cc(=O)[nH]c(SCC(=O)c2ccc(F)c(C)c2)n1	60	-2	4.7	i	-3	5	-7.8	5.1	0.64
COc1cc(/C=C2\C(=N)N3N=C(N4CCOCC4)SC3=NC2=O)ccc1OC(=O)c1ccccc1	15	3	4.3	i	-5	2	0.2	-0.5	0.74
CSc1ccc(/C=N\Nc2nncn2N)cc1	-1	-5	nt	i	-12	-9	-2.5	-0.2	nt
Cc1ccc(Cl)c(NC(=O)COC(=O)c2ccccc2C(=O)c2ccc(Cl)c([N+](=O)[O-])c2)c1Cl	-51	14	4.3	nt	nt	nt	nt	-1.3	0.66
CCCc1cc(C(=O)Nc2sc3c(c2C#N)CCC3)no1	21	-5	-2.0	i	-7	-15	4.2	-0.2	0.75
O=C(C1=C[C@@H](c2ccc(C(F)(F)F)cc2)C[C@@H](OCc2ccc(CO)cc2)O1)N1CCN(Cc2ccc3c(c2)OCO3)CC1	1	11	0.1	i	-4	-12	19	1.6	nt
Cc1cc(C)c(C(=O)CSC2=NC(N)=C(C#N)C3(CCCCC3)C2C(N)=O)cc1C (stereo unspecified)	53	0	3.7	nt	nt	nt	nt	-1.0	0.68

New compounds follow:
SMILES	ALR H2O2 inh	Beta2AR agonist	UCH37 inh	FGF22 binding	rRNA inh HTS	rRNA inh HTS OD600	rRNA inh HTS RFP	HNF4A DNA FP	Ecoli growth
CC1=CC(C)(C)C(C(=O)O)C(C(=O)O)C1 (stereo unspecified)	0	-7	4.4	nt	nt	nt	nt	1.6	0.67
Cc1nc([N+](=O)[O-])cn1CC(O)c1ccc(-c2ccccc2)cc1 (stereo unspecified)	nt	8	5.2	i	-45*	-32*	1.3*	-5.1	0.66
CCCCC(=O)Nc1cccc(-c2nc3ncccc3o2)c1C	-11	-17	-6.1	i	-2	12	-2.8	0.5	0.67
CCC(C)N(C(=O)c1csnn1)C(C(=O)NC1CCCC1)c1ccc(F)cc1 (stereo unspecified)	-10	4	1.2	i	6	5	-1.3	-0.1	0.67
Cc1cnc2c(C(=O)O)cnn2c1	-3	4	2.3	i	10	12	0.6	2.0	0.71
Cc1noc(C)c1C(=O)OCC(=O)c1cc(C)n(Cc2ccccc2Cl)c1C	0	3	2.4	nt	nt	nt	nt	-1.2	0.69
Cc1cc(C)c(S(=O)(=O)NCCOc2ccccc2)c(C)c1-n1cnnn1	3	-8	3.6	i	-18*	-3.3*	5.9*	-3.0	0.68
CCN(CC)CCCN(Cc1cc2cc3c(cc2[nH]c1=O)OCO3)C(=S)Nc1ccc(OC)cc1	0	24	-53	i	4	8	-0.2	3.6	0.74
COc1ccc(NC2CCCN(C(=O)c3cc(C)nc4cc(F)ccc34)C2)cc1 (stereo unspecified)	99*	3	0.8	i	1	5	-2.1	9.5	0.63
CC(C)(C)NC(=O)CCN(/N=C/c1ccccc1O)C1=NS(=O)(=O)c2ccccc21	2	18	nt	i	2	-1	1.1	3.4	nt
CCN(CC)S(=O)(=O)c1cc(C(=O)OCC(=O)Nc2cccc(Br)c2)ccc1F	-3	1	0.0	nt	nt	nt	nt	-2.8	0.69
Cc1cccc(NC(=S)NC(=O)c2ccc(Br)o2)c1	2	-1	0.9	i	10	5	-0.2	-0.5	0.72
CCOc1ccccc1C(=O)N[C@H](C(=O)OCc1cc(=O)oc2cc(C)ccc12)C(C)C	-5	2	2.6	i	-19	-23	3.1	-1.9	0.7
Cc1cc(C)cc(NS(=O)(=O)c2ccc(F)cc2)c1	nt	1	4.8	i	3	1	-0.3	-2.2	0.67
c1ccc2c(N3CCCCC3)nc(N3CCOCC3)nc2c1	nt	-10	-81	i	1	-11	-1.2	1.2	0.67
COc1ccccc1CNC(=O)COC(=O)/C=C/c1ccc2c(c1)OCO2	nt	-5	-17	i	-6	0	-4.0	-0.3	0.72
CCOc1ccc(NC(=O)CSc2nnc(C(C)C)n2CC)cc1	-6	-1	-1.8	nt	nt	nt	nt	-0.3	0.69
COc1cc(CN2C(=O)C(Cc3ccccc3)ON=C2c2ncccc2C)cc(OC)c1 (stereo unspecified)	nt	nt	nt	i	-19	-31	6.6	0.8	nt
O=C(CSc1nnc(Cc2cc(=O)[nH]c(=O)[nH]2)n1-c1ccc(F)cc1)NC1CCCC1	-7	-9	5.2	i	10	12	-1.2	-5.5	0.72
CCCCOc1cccc(OCCCC)c1C(=O)Nc1cc(C)on1	1	-4	0.1	nt	nt	nt	nt	-0.6	0.71
CN(C)NC(=S)NC(=O)C12CC3CC(CC(C3)C1)C2	92*	-1	0.1	i	3	-2	-1.3	3.4	0.7
CCCn1cc(SCC(=O)Nc2ccc3c(c2)OCO3)c2ccccc21	49	-9	-1.4	i	-6	-45	-19	-0.3	0.7
CCN(CC(=O)NCc1cccs1)C(=O)/C=C/c1cc(OC)c(OC)c(OC)c1	nt	-3	-31	i	12	2	-0.2	1.8	0.65
CCOc1ccc(C(=O)NCC(C)NC(=O)c2ccc(OCC)cc2)cc1 (stereo unspecified)	-7	-2	6.0	i	5	-1	-1.6	-2.9	0.65
O=S(=O)(c1ccc2c(c1)OCCO2)N1CCN(S(=O)(=O)c2ccccn2)CC1	-2	-1	4.2	i	7	16	-3.9	-2.0	0.66

Look-ups from the entries so far.
Value for `Cc1nc([N+](=O)[O-])cn1CC(O)c1ccc(-c2ccccc2)cc1` (stereo unspecified) in rRNA inh HTS OD600: -32*
Value for `NS(=O)(=O)c1ccc(CNC(=S)Nc2cc(S(=O)(=O)N3CCOCC3)ccc2Cl)cc1` in HNF4A DNA FP: 2.6
Value for `c1ccc2c(N3CCCCC3)nc(N3CCOCC3)nc2c1` in Beta2AR agonist: -10
Value for `Cc1cnc2c(C(=O)O)cnn2c1` in UCH37 inh: 2.3

(more compounds)
SMILES	ALR H2O2 inh	Beta2AR agonist	UCH37 inh	FGF22 binding	rRNA inh HTS	rRNA inh HTS OD600	rRNA inh HTS RFP	HNF4A DNA FP	Ecoli growth
COc1cccc(OC(=O)CSc2nnc(-c3ccccc3Br)o2)c1	12	-1	5.4	nt	nt	nt	nt	0.8	0.71
CCc1ccc(OCC(=O)Nc2cccc3nsnc23)cc1	-7	13	-85	i	3	3	-0.5	4.2	0.69
COC(=O)CCCCCN1C(=O)NC(c2ccc(-c3ccccc3)cc2)C(C(=O)OCc2ccccc2)=C1C (stereo unspecified)	nt	nt	-1.4	i	4	7	2.5	nt	0.72
Cc1cc2oc(=O)cc(C)c2cc1NC(=O)CCC(=O)O	-10	-5	-35	i	9	6	-1.1	1.8	0.67
Cc1ccc2nsnc2c1S(=O)(=O)N1CCCC1	-2	-1	1.4	nt	nt	nt	nt	-3.3	0.77
COc1ccc(C2CC(c3ccc(Cl)cc3Cl)n3nc(N)nc3N2)cc1 (stereo unspecified)	1	0	-0.5	i	0	-16	3.6	1.4	0.75
COc1ccc(C)cc1NC(=O)C(c1ccccc1)N1CCN(CC(=O)N2CCCC2)CC1 (stereo unspecified)	nt	2	7.7	i	0	0	0.2	4.2	0.71
Cc1ccc(CNC(=O)/C=C/[C@H]2O[C@@H](n3cc(C)c(=O)[nH]c3=O)C[C@@H]2O)o1	nt	nt	nt	i	18	15	4.2	-0.5	nt
CC(=O)N1CCc2cc(Br)cc(S(=O)(=O)NCCCN3CCC(C)CC3)c21	-6	-2	1.0	nt	nt	nt	nt	-0.1	0.7
CCOC(=O)N1CCN(C(=O)/C(=C/c2ccc(F)cc2)NC(=O)c2ccccc2)CC1	-8	3	-1.0	i	7	8	-1.1	2.8	0.64
O=C1C2CC=C(Cl)CC2C(=O)N1CCC[n+]1ccccc1 (stereo unspecified)	-21	6	0.6	nt	nt	nt	nt	0.0	0.66
COc1ccccc1N(CC(=O)NCC1CCCO1)C(=O)Cn1nnc(-c2cccs2)n1 (stereo unspecified)	-13	-8	0.9	i	3	3	-1.1	-2.4	0.67
CCc1noc(C)c1C(=O)NNC(=O)c1ccccc1F	-1	2	-0.4	i	3	5	0.3	-0.8	0.67
COC(=O)c1c(C)oc(C)c1S(=O)(=O)N1CCCC1	47	-13	-0.9	i	6	2	0.2	-0.6	0.67
O=C1CCCN1CN(C(=O)c1ccc2c(c1)OCO2)c1ccc(F)cc1	-7	-6	2.0	nt	nt	nt	nt	1.0	0.71
Cc1cc(NC(=O)CSc2ccc3nnc(-c4cccs4)n3n2)no1	2	-21	0.8	i	4	8	2.2	0.5	0.72
CN(C)CCCNc1c2c(nc3cc(-c4cccc(F)c4)nn13)CCC2	4	-6	-17	i	23	21	6.7	1.0	0.7

As a working copy, part of the list above:
SMILES	ALR H2O2 inh	Beta2AR agonist	UCH37 inh	FGF22 binding	rRNA inh HTS	rRNA inh HTS OD600	rRNA inh HTS RFP	HNF4A DNA FP	Ecoli growth
O=C1CCCN1CN(C(=O)c1ccc2c(c1)OCO2)c1ccc(F)cc1	-7	-6	2.0	nt	nt	nt	nt	1.0	0.71
Cc1cc(NC(=O)CSc2ccc3nnc(-c4cccs4)n3n2)no1	2	-21	0.8	i	4	8	2.2	0.5	0.72
